Compound activity deposited in PubChem by National Center for Advancing Translational Sciences (NCATS).
ClpP mod: qHTS Assay for Activators of ClpP | 340,000 compounds, 1.9% hits | ATP-dependent Clp protease proteolytic subunit (Bacillus subtilis (strain 168)), P80244 | purified B. subtilis ClpP, FRET peptide cleavage, 20 min | Potency, µM (highest dose often 57.5 µM), for the others: at the top dose activity change, negative = active; active = well fitted falling curve with a large enough effect; inconclusive = small, poorly fitted or top-dose-only effect; inactive = no such curve, though single readings can be large or run the other way; also: potency is read from the fitted curve at half-maximal effect; the source files actives as falling curves though it sought activators and does not explain the sign; nearly all actives have a fitted effect of over 65% in size; many hits overshoot -100%
Target sequence (P80244 whole entry, looked up): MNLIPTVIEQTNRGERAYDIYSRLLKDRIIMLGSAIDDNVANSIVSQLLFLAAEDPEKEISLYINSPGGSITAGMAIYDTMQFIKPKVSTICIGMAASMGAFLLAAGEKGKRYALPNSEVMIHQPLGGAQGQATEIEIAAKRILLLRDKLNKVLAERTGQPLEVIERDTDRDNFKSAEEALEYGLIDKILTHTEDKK
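FRET quenching reversal measured ClpP activation: 10 microg/mL B. subtilis ClpP at pH 8 with the FRET-FV decapeptide, read at 430 nm after 320 nm excitation. The 20-min minus 0-min signal was scaled between DMSO/no-enzyme wells and ADEP (5.8 microM final).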
Menin MLL FP FL: displaces fluorescein MLL peptide from human menin. Fluorescence polarization, fluorescein-MLL peptide displacement from menin. FP activity change, % at 61.4 µM. 290,000 tested, under 10 active. AID 1766; inconclusive = falling polarisation curve, or a change in total fluorescence; inactive = total fluorescence flat and polarisation flat or rising; no compound was filed as active; the % refers to the polarisation; negative = inhibition;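 also: % of control where 0% means no effect; inhibitors lower the polarisation; unlabelled MLL peptide was the positive control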
Sfp PPTase inh: inhibitors of Bacillus subtilis Sfp phosphopantetheinyl transferase; Q9F4F7; Biochemical Sfp PPTase activity, qHTS; Potency, µM, without a hit: max response, negative = inhibition, most hits filed as inhibitors; 310,000 compounds, 3.5% hits; AID 1490; active = well fitted inhibition curve with a large enough effect; inconclusive = small, poorly fitted or top-dose-only effect, or another doubt; inactive = no such curve, though single readings can be large or run the other way;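 also: the enzyme is Sfp with the accession as filed and its product quenches rhodamine fluorescence; potency is read from the fitted curve at half-maximal effect; 0% = enzyme reaction without inhibitor and -100% = no enzyme wells; top concentration of the series not given in the record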
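Fluorescence-quenching assay: 15 nM Sfp-PPTase preincubated 15 min at room temperature with compound, then 5 uM rhodamine-CoA and 12.5 uM BHQ-2-labelled YbbR peptide added. Fluorescence (ex 525/em 598 nm) read at start and after 30 min; difference gives rate.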
PINK1 expr mod: changes PINK1 expression; PINK1 immunofluorescence, high-content cytometry, 24 h; Potency, µM (highest dose often 76.6 µM), without a hit: top-dose activation (PINK1 increase), hits mostly activators; 410,000 compounds, 0.2% hits; active = well fitted activation curve with a large enough effect; inconclusive = small, poorly fitted or top-dose-only effect; inactive = flat fitted curve, though single readings scatter; cell line not stated here;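 also: potency is read from the fitted curve at half-maximal effect; % of control where 0% means no effect; nearly all actives have a fitted effect of over 65% in size; a mitochondrial uncoupler was the plate control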
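PINK1 protein level read as immunofluorescence by microplate cytometer in a fixed, stained stable cell line after 24 h exposure to five compound concentrations, with CCCP as control.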
TRPML1 blocker: human mucolipin-1 channel inhibition; Q9GZU1; TRPML1-inducible cells, Ca2+ dye fluorescence, FDSS; stronger effect = lower value; inhibition of EC80 agonist-evoked calcium signal; activity change, negative = inhibition, % (no concentration beside the values); 390,000 compounds, 0.02% hits; in the data active means activity change below about -50%; inconclusive means about -30% to -50%; inactive means above about -30%;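 also: stimulus is agonist 54-4 at its EC80 concentration; % is scaled to controls: 0 for no effect and ±100 for the full control effect; compound concentration not given in the record; the text of the record puts the active cut at -80%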
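Calcium fluorescence in TRPML1-DL cells induced overnight with Tet: a 110 s read after compound pin addition, then a 110 s antagonist read after challenge with 54-4 at 4 uM final (EC80).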
TRPV1 potentiator: human TRPV1 potentiation | Q8NER1 | TRPV1-expressing cells, Fluo-8 calcium influx, capsaicin EC20 potentiation; host cell line not named in the record; control for the full effect not named in the record | potentiation, % at 8.33 µM | 320,000 compounds, 0.02% hits | AID 540277; active means potentiation above 80%; inconclusive means 30% to 80%; inactive means below 30%; also: 0% is about no effect
Target sequence (Q8NER1 whole entry, looked up): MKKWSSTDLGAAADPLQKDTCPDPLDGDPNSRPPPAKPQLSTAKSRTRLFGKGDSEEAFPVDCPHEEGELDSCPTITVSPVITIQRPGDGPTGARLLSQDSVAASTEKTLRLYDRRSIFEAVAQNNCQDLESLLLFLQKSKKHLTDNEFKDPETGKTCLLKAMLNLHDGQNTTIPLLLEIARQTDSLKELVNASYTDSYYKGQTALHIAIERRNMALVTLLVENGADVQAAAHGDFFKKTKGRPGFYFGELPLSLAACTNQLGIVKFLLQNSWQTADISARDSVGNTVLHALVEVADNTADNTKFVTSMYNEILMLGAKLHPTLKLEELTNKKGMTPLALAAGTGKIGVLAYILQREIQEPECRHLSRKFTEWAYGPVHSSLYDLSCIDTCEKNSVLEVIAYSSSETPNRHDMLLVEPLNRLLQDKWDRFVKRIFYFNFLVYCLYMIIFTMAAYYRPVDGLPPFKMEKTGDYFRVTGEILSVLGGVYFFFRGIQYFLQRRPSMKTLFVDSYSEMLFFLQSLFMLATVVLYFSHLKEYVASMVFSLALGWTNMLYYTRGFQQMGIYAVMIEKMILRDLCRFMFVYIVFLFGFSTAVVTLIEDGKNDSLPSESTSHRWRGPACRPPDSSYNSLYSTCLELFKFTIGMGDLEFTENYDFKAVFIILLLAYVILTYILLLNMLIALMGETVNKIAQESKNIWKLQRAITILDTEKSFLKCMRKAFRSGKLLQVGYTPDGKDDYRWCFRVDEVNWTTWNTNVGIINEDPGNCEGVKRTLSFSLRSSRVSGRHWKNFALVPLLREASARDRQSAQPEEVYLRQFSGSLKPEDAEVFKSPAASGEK
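Cells expressing TRPV1 were dye-loaded with Fluo-8 and read kinetically: 10 s baseline, 3 min after compound (agonist portion), then 2 min after EC20 capsaicin (allosteric enhancer portion). Calcium-bound dye fluorescence at 480/520 nm.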
TRPML1 ag: agonists of human TRPML1 channel; Q9GZU1; TRPML1-expressing cells, Ca2+ dye fluorescence, FDSS; host cell line not named in the record; reference of the full effect not given here; activation, % (concentration not given with the values); 410,000 compounds, 0.12% hits; in the data active = activation above about 50%; inconclusive = about 30% to 50%; inactive = below about 30%; also: 0% is about no effect; the text of the record puts the active cut at 80%
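Tet-induced TRPML1-DL cells, 1,500 per well, cultured overnight, were loaded with a no-wash Ca2+ dye for 45–90 min. Calcium fluorescence was recorded on the FDSS for 110 s after compound addition, before the EC80 agonist (4 uM 54-4) was added.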
Active calls of the source: *; ? = inconclusive; . = no result given; [ ] = remark or other dose.

SMILES | ClpP mod | Menin MLL FP FL | Sfp PPTase inh | PINK1 expr mod | TRPML1 blocker | TRPV1 potentiator | TRPML1 ag
NS(=O)(=O)c1ccc(NC(=S)NCc2ccc(F)cc2)cc1 | . | -0.7 | ? | -0.1% | 8 | -15 | 0.0
Cc1ccc(N(C(=O)c2ccc(S(=O)(=O)N3CCCC3)cc2)C2C=CS(=O)(=O)C2)cc1 (configuration not stated) | -1.6% | -0.7 | 8% | -2.2% | 4 | -3 | 1.1
Cc1ccc(OCC(=O)N(C)CC(=O)Nc2ccc(F)cc2)c([N+](=O)[O-])n1 | . | 2.5 | 25% | 0.8% | -10 | 9 | -0.9
CCc1ccc(NC(=O)CC2C(=O)N(c3ccc(F)cc3)C(=O)N2Cc2ccc(F)cc2)cc1 (configuration not stated) | 3.7% | . | . | -0.3% | -9 | . | 1.5
CCOc1ccc(/C(O)=C2/C(=O)C(=O)N(CCOCCO)C2c2ccc(F)cc2)cc1 (configuration not stated) | -27% | -0.4 | 17% | 1.4% | 18 | 4 | -0.6
Cc1nn(C(C)(C)C)c(N)c1-c1ccccc1 | -1.9% | . | 0% | 0.1% | 0 | 2 | -0.2
Cc1ccc(NC(=O)CNCCCN2CCOCC2)cc1S(=O)(=O)N1CCCCC1 | -3.0% | -1.3 | 79µM* | -1.7% | -10 | 5 | 0.6
CC(=O)c1c(N(C)C)ccnc1C(F)(F)F | 4.5% | 1.8 | 7% | -0.5% | -8 | -1 | -0.2
N#Cc1cccc(OC(=O)C2CCN(C(=O)c3ccc(F)cc3)CC2)c1 | 0.5% | . | . | 0.3% | 15 | . | -0.6
COc1cccc(-c2ccc3c(N)c(C(=O)c4ccc(Br)cc4)sc3n2)c1 | -2.5% | . | . | 4.9% | -2 | . | 22
N#Cc1c(NC(=O)Cn2cnc3ccccc3c2=O)oc(-c2ccccc2)c1-c1ccccc1 | -6.7% | 2.9 | 9% | -3.7% | 10 | -14 | 0.7
O=C(Nc1c(F)cccc1F)C(c1ccccc1)c1ccccc1 | . | . | . | 4.3% | -10 | . | 1.0
CN1CCN(c2ncc3nc(-c4cn(C)c5ccccc45)c(=O)n(CCC#N)c3n2)CC1 | . | ? | -2% | 4.1% | . | . | .
CC(C)N1CCC(=NNC(=O)c2ccc(Br)o2)CC1 | -2.8% | 0.9 | -4% | 0.9% | -6 | 9 | -1.3
CCCC(=O)Nc1ccc(C(=O)n2ccc(C)n2)cc1 | 0.8% | 7.6 | 8% | 0.7% | 37 | 6 | 0.1
CCCn1nc(C(=O)NNC(=O)c2ccc(OC(F)F)cc2)c2ccccc2c1=O | . | . | . | 0.4% | 3 | . | 0.8
O=C(CN1C(=O)CCC1=O)NNc1ccc2ccccc2c1 | -7.3% | 0.3 | 1% | 3.4% | 2 | 5 | 0.4
CCOC(=O)C1CCN(CC(=O)Nc2c(C(=O)OC)[nH]c3cccc(C)c23)CC1 | -22% | 6.0 | 3% | -0.2% | 2 | -10 | 0.7
CC(=O)c1sc(NC(=O)c2ccc(Cn3cc(Br)cn3)o2)nc1C | 1.3% | 2.9 | 12% | -1.3% | 3 | 5 | -0.7
COc1ccc(NC(=O)c2ccc3oc(=O)c(S(=O)(=O)c4ccc(F)cc4)cc3c2)cc1OC | -3.0% | . | . | 0.3% | 24 | . | -0.3
O=[N+]([O-])c1cc2c(cc1[N+](=O)[O-])OCCOCCOCCOCCO2 | -0.2% | -3.4 | 7% | 7.3% | 22 | 0 | 6.7
O=S(=O)(Nc1cccc(S(=O)(=O)N2CCOCC2)c1)c1ccc2c(c1)OCCO2 | . | 3.7 | 20% | 2.3% | -5 | -3 | 0.7
C=CCOc1ccc(/C=C/C(=O)OCC(=O)N2CCN(C(C)=O)CC2)cc1 | . | . | . | -3.6% | 3 | . | 2.1
O=S(=O)(CCc1nc2ccccc2o1)c1ccc(Cl)c(Cl)c1 | 1.1% | 1.7 | 16% | -1.3% | -12 | -10 | -0.2
Cc1ccccc1-c1noc(-c2ccc(Cl)cc2)n1 | 0.6% | 0.8 | 3% | -1.5% | -16 | 2 | 1.7
Other entries:
SMILES | ClpP mod | Menin MLL FP FL | Sfp PPTase inh | PINK1 expr mod | TRPML1 blocker | TRPV1 potentiator | TRPML1 ag
Cc1ccc(NC2CCCN(C(=O)c3cn4cc(Cl)ccc4n3)C2)cc1C (configuration not stated) | -6.1% | . | 0% | -1.8% | -3 | -20 | 0.6
CCOc1cccc(NC(=O)CSc2ncc(-c3ccccc3)[nH]2)c1 | -2.6% | . | . | 0.2% | 18 | . | 3.3
Cc1ccccc1NC(=O)CSc1nn2c(=O)c(C)nnc2s1 | -1.4% | -1.5 | -22% | 1.4% | 14 | 0 | -0.4
Cc1cc(C(=O)Nc2nc3ccc(Cl)cc3s2)nn1C | . | 0.2 | 9% | 4.1% | -8 | -1 | 0.6
COc1cccc(NC(=O)CN(C)C(=O)CCCc2nc3ccccc3s2)c1 | -1.9% | . | . | 1.1% | 5 | -18 | -1.0
CSc1ncccc1C(=O)N1CCN(S(=O)(=O)c2ccc(C)cc2)CC1 | -1.2% | 7.4 | 8% | 1.6% | 7 | -3 | -0.4
CCc1ccc(C(=O)c2cn(Cc3ccccc3)c3cc(OC)c(OC)cc3c2=O)cc1 | -4.2% | . | . | -1.0% | -1 | . | 0.8
COc1cccc(CN(C)C(=O)c2cc(S(=O)(=O)N3CCN(c4ccccc4)CC3)ccc2Cl)c1 | -0.7% | . | 13% | 4.0% | 7 | 7 | 1.1
Cc1ccc(S(=O)(=O)Nc2cccc(C(=O)NCCCN3CCCC3=O)c2)cc1F | -2.1% | . | . | 1.2% | 2 | 0 | -1.1
Cc1ccc(C)c(N2CCN(S(=O)(=O)c3cc(C(=O)Nc4cc(Cl)cc(Cl)c4)ccc3F)CC2)c1 | 4.8% | . | . | -0.8% | -12 | . | 0.6
O=C(CSCC(=O)c1ccc([N+](=O)[O-])cc1)c1ccc([N+](=O)[O-])cc1 | 1.1% | . | . | -0.1% | . | . | 8.8
Cc1ccccc1NC(=S)NNC(=O)c1ccoc1C | -0.1% | 4.0 | 26% | -6.9%[38.3 µM] | -5 | -2 | -0.7
CCOc1cccc2sc(Cl)nc12 | 1.2% | -0.5 | ? | 3.1% | 14 | ? | -0.5
CCCCNC(=O)C1(C)CCCCN1C(=O)c1cccs1 (configuration not stated) | -0.6% | . | . | 3.3% | . | . | -0.3
COc1cc(C=NNc2nc3c([nH]2)c(=O)n(C)c(=O)n3C)ccc1O | . | . | . | -2.4% | -12 | . | 0.2
Cc1cccc(C)c1N=Cc1c(C(F)(F)F)[nH][nH]c1=O | 0.4% | 2.2 | 12% | 3.5% | -9 | -1 | -1.0
CS(=O)(=O)N1CCC(C(=O)Nc2cc(Cl)cc(Cl)c2)CC1 | . | 1.8 | -8% | 2.8% | -10 | -11 | 0.5
Cc1cc(C)n(-c2ccc(NC(=O)C3CCCCN3C(=O)c3sccc3C)cc2)n1 (configuration not stated) | -1.9% | . | 5% | 1.9% | 7 | 0 | -0.6
O=S(=O)(NCCc1csc(-c2ccccc2)n1)c1cccnc1 | -3.8% | 4.8 | -11% | -0.7% | . | -5 | .
O=C(N/N=C/c1ccc(OCc2ccccc2)cc1)c1ccc(O)cc1 | 0.9% | -0.9 | -3% | 8.5% | -8 | 3 | 1.2
COc1cccc(NC(=O)CSc2nc(=O)n(Cc3ccncc3)c3c2CCC3)c1 | -2.8% | . | . | -1.4% | 4 | . | 0.2
CCN(CC)CCN1CNC(=S)NC1 | -3.0% | . | . | 2.3% | 7 | . | 0.2
O=C(Cn1c(=O)n2nc(-c3cccc(F)c3)nc2c2ccccc21)NCc1ccc(Cl)cc1 | 0.1% | . | . | 7.7% | 16 | . | 0.7
CS(=O)(=O)NCCCNc1ccc(C(F)(F)F)cc1[N+](=O)[O-] | 0.9% | 1.1 | 3% | 1.9% | . | -4 | .
Cc1cc(C)c(CN2CCC(n3nccc3NC(=O)C3CCCC3)CC2)cc1C | 0.8% | . | 9% | -1.2% | 2 | 18 | -1.2
(listing goes on)
SMILES | ClpP mod | Menin MLL FP FL | Sfp PPTase inh | PINK1 expr mod | TRPML1 blocker | TRPV1 potentiator | TRPML1 ag
COc1ccc(NC(=O)N2CCCC(C(=O)Nc3ccccc3OC)C2)cc1 (configuration not stated) | . | 6.1 | 15% | 0.8% | -1 | -2 | -0.3
Cc1onc(-c2ccccc2Cl)c1C(=O)OCC(=O)N1CCC(C)CC1 | -6.9% | . | . | 0.6% | -1 | . | -0.1
Cc1cc(C(=O)N2CCc3ccccc3C2)n[nH]1 | -0.8% | -2.3 | 15% | -0.1% | 53 | 12 | 0.3
O=C(CNC(c1ccccc1)c1ccccc1)NCc1ccccc1Cl | 1.6% | 1.4 | 3% | -2.6% | 16 | -12 | 4.4
O=C(CSc1nc2ncccc2[nH]1)NCc1ccccc1 | -4.8% | 3.8 | 1% | 4.0%[38.3 µM] | -1 | -2 | 0.6
CC(=O)c1ccc(N2CCN(C(=O)Cn3ncc4c3-c3ccccc3OC4)CC2)cc1 | -15% | . | . | -1.3% | 7 | . | -0.3
CCCOc1ccc(-c2nnn(CC(=O)N3CCCC(C)C3)n2)cc1 (configuration not stated) | -2.2% | -0.2 | 7% | 0.2% | . | -22 | .
COC(=O)C1=C(C(=O)OC)SC2(S1)C(C(=O)OC)=C(C(=O)OC)SC1=C2c2cc(C)ccc2NC1(C)C | -1.7% | 3.4 | 2.8µM* | -0.7% | -6 | 5 | -0.7
COc1cnn(-c2cccc(Cl)c2)c(=O)c1Cl | 1.3% | . | . | 2.7% | 11 | . | 0.5
CCN(CC)c1ccc(S(=O)(=O)N2CCOCC2)cc1NC(=O)COC(=O)c1ccco1 | . | . | . | 3.5% | 28 | -4 | -1.1
Cn1nc(C(F)(F)F)c(CN2CC(C)(C)C2=O)c1N1CCOCC1 | -26% | -4.3 | 2% | 1.9% | 11 | -2 | 0.3
CC(=O)c1cccc(NC(=O)NNC(=O)CCC(=O)Nc2ccc(C)c(C)c2)c1 | . | 0.2 | 17% | 0.0% | -10 | 4 | -0.7
Cn1cc(CN2CCN(CC(C)(C)C)C(CCO)C2)c2ccccc21 (configuration not stated) | . | 2.7 | 14% | -0.8% | -6 | -5 | 0.1
c1ccc(Nc2ccnc(Nc3ccccc3)n2)cc1 | . | -0.7 | ? | -2.7% | 6 | -11 | 1.7
